PINK1 modulator: changes PINK1 expression | PINK1 immunofluorescence, high-content cytometry, 24 h | Potency, µM (titrated, usually from 76.6 µM), inactives show at the highest dose activation (PINK1 increase), actives largely listed as activators | 0.2% of 410,000 active; active = well fitted activation curve with a large enough effect; inconclusive = small, poorly fitted or top-dose-only effect; inactive = flat fitted curve, though single readings scatter; cell line not stated here;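 further: potency means the concentration at half of the fitted maximal effect; % of control where 0% means no effect; nearly all actives have a fitted effect of over 65% in size; a mitochondrial uncoupler was the plate control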
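Stable cell line, 250 cells/well, 12 h attachment; compounds pinned at 5 concentrations, 24 h; CCCP control. Fixed with nuclear dye, primary antibodies 12 h at 10 degrees C, secondary plus cell stain; laser-scanning cytometer read.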
Sfp inh: inhibitors of Bacillus subtilis Sfp phosphopantetheinyl transferase. Q9F4F7. Biochemical Sfp PPTase activity, qHTS. Potency, µM, without a hit: max response, negative = inhibition, hits mostly inhibitors. 3.5% of 310,000 active. AID 1490; active means well fitted inhibition curve with a large enough effect; inconclusive means small, poorly fitted or top-dose-only effect, or another doubt; inactive means no such curve, though single readings can be large or run the other way;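 further: the enzyme is Sfp with the accession as filed and its product quenches rhodamine fluorescence; potency means the concentration at half of the fitted maximal effect; 0% = enzyme reaction without inhibitor and -100% = no enzyme wells; top concentration of the series not given in the record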
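Fluorescence-quenching assay with 15 nM Sfp, 5 uM rhodamine-CoA and 12.5 uM BHQ-2-labelled ybbR peptide in pH 7.6 Hepes/MgCl2 buffer. Enzyme was pre-incubated with compound for 15 min at room temperature. Rate was taken from the 30-min fluorescence change (525/598 nm).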
TRPV1 PAM: potentiators of human vanilloid receptor 1 (TRPV1) | Q8NER1 | TRPV1-expressing cells, Fluo-8 calcium influx, capsaicin EC20 potentiation; host cell line not named in the record; control for the full effect not named in the record | potentiation, % at 8.33 µM | 0.02% of 320,000 active; active means potentiation above 80%; inconclusive means 30% to 80%; inactive means below 30%; further: 0% is about no effect
Target sequence (Q8NER1 whole entry, looked up): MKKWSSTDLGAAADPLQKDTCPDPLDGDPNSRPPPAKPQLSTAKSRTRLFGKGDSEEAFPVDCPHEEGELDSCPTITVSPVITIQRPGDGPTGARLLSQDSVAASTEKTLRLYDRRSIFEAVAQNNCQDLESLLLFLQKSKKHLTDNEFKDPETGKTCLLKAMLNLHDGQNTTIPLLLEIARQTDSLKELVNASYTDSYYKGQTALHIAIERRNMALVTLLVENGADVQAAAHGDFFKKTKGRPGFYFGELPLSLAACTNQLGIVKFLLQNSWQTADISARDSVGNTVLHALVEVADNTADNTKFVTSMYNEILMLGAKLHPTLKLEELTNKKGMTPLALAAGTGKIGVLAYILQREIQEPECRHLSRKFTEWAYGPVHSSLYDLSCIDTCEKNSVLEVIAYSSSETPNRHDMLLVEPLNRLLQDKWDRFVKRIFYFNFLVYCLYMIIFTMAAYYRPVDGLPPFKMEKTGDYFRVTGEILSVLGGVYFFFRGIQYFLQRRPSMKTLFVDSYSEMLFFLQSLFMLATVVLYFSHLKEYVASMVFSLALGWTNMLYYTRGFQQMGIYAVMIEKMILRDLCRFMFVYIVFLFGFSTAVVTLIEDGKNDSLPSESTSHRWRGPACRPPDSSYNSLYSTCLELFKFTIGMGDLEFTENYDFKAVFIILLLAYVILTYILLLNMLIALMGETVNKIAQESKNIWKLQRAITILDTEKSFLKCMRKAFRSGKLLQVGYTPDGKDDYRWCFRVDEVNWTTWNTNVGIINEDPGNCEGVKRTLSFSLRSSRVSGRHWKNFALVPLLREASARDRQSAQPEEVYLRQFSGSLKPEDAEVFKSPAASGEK
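Cells expressing TRPV1 were dye-loaded with Fluo-8 and read kinetically: 10 s baseline, 3 min after compound (agonist portion), then 2 min after EC20 capsaicin (allosteric enhancer portion). Calcium-bound dye fluorescence at 480/520 nm.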
TRPML1 agonist: human mucolipin-1 channel agonism; 0.12% of 410,000 active; activation, % (concentration not given with the values); TRPML1-expressing cells, Ca2+ dye fluorescence, FDSS; host cell line not named in the record; reference of the full effect not given here; Q9GZU1; in the data active = activation above about 50%; inconclusive = about 30% to 50%; inactive = below about 30%; further: 0% is about no effect; the text of the record puts the active cut at 80%
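Agonist activity was taken from a 110 s kinetic Ca2+ dye read on the FDSS after pinning compounds onto TRPML1-DL cells. The cells were seeded at 1,500/well with Tet inducer, incubated about 16 h, then dye-loaded at room temperature.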
ClpP mod: qHTS Assay for Activators of ClpP | ATP-dependent Clp protease proteolytic subunit (Bacillus subtilis (strain 168)), P80244 | purified B. subtilis ClpP, FRET peptide cleavage, 20 min | Potency, µM (doses to about 57.5 µM), without a hit: at the highest dose activity change, negative = active | 1.9% of 340,000 active; active = well fitted falling curve with a large enough effect; inconclusive = small, poorly fitted or top-dose-only effect; inactive = no such curve, though single readings can be large or run the other way; further: potency means the concentration at half of the fitted maximal effect; the source files actives as falling curves though it sought activators and does not explain the sign; nearly all actives have a fitted effect of over 65% in size; many hits overshoot -100%
Target sequence (P80244 whole entry, looked up): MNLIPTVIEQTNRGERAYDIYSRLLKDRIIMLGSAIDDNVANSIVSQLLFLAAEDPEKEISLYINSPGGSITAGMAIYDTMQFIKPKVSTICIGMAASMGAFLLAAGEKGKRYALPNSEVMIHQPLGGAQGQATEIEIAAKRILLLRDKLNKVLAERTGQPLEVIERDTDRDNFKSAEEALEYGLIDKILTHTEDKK
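Purified B. subtilis ClpP, 10 microg/mL final in Tris/HCl pH8 with KCl, BSA, glycerol and Tween-20, cleaved an Abz/nitrotyrosine-quenched decapeptide. Fluorescence (ex 320, em 430) was read at 0 and 20 min at room temperature. Delta was normalized to 5.8 microM ADEP and DMSO/no-enzyme controls.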
Menin MLL FP FL: displaces fluorescein MLL peptide from human menin; 290,000 tested, under 10 active; FP activity change, % at 61.4 µM; AID 1766; Fluorescence polarization, fluorescein-MLL peptide displacement from menin; inconclusive = falling polarisation curve, or a change in total fluorescence; inactive = total fluorescence flat and polarisation flat or rising; no compound was filed as active; the % refers to the polarisation; negative = inhibition;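 further: % of control where 0% means no effect; inhibitors lower the polarisation; unlabelled MLL peptide was the positive control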
TRPML1 inh: inhibitors of human TRPML1 channel; Q9GZU1; TRPML1-inducible cells, Ca2+ dye fluorescence, FDSS; hits give low values; inhibition of EC80 agonist-evoked calcium signal; activity change, negative = inhibition, % (concentration not given with the values); 0.02% of 390,000 active; AID 624415; in the data active means activity change below about -50%; inconclusive means about -30% to -50%; inactive means above about -30%;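 further: stimulus is agonist 54-4 at its EC80 concentration; on the % scale 0 is the no-effect control and ±100 the full control effect; compound concentration not given in the record; the text of the record puts the active cut at -80%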
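Calcium fluorescence in TRPML1-DL cells induced overnight with Tet: a 110 s read after compound pin addition, then a 110 s antagonist read after challenge with 54-4 at 4 uM final (EC80).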
Active calls of the source: *; ? = inconclusive; nt = not tested or not shown; [ ] = dose if it differs, or a comment.

SMILES | PINK1 modulator | Sfp inh | TRPV1 PAM | TRPML1 agonist | ClpP mod | Menin MLL FP FL | TRPML1 inh
CCOC(=O)C1=CCN(S(=O)(=O)c2ccccc2)C1c1ccccc1 (configuration not stated) | -0.6% | nt | nt | -0.9 | -1.0% | nt | nt
COc1ccc(C(=O)Nc2c(Cl)cc(Cl)cc2C(=O)N2CCC(C)CC2)cc1 | 1.8% | 12% | -3 | 1.3 | 16µM* | 0.4 | -7
CCCOc1ncnc2c1[nH]c1ccc(OC)cc12 | 5.0% | 2% | nt | -1.2 | ? | 0.9 | 26
COc1ccc(NC(=O)c2cccnc2SC)cc1OC | 0.1% | -2% | -2 | -0.2 | nt | 3.3 | 4
Cn1c(=O)[nH]c(NC2CCCCC2)c([N+](=O)[O-])c1=O | 1.0% | 1% | -2 | -0.1 | 1.2% | 7.2 | 23
Cc1ccc(C(C#N)c2ccc(C(=O)c3ccc(F)cc3)cc2)cc1 (configuration not stated) | -0.4% | 7% | -12 | 0.6 | 1.4% | 3.6 | -11
Cc1ccc(Cn2c(=O)c3ccccc3n3c(-c4cccc(O)c4)nnc23)cc1 | -1.9% | nt | nt | 2.0 | -8.7% | nt | -17
Cc1ccc(S(=O)(=O)N(C)C)cc1NC(=O)c1cccnc1Oc1ccccc1 | 1.2% | 30%[activator] | -2 | 1.9 | -2.1% | 1.9 | -8
Cc1ccc(OCc2n[nH]c(=S)n2-c2ccc(C)cc2)cc1 | 0.3% | 6% | 6 | 1.1 | -0.8% | 4.4 | -16
COc1ccc(OC)c(/C=C(\NC(=O)c2ccccc2)C(=O)N/N=C/c2ccc(C)s2)c1 | nt | 7% | 9 | -0.1 | -5.0% | ? | 4
COc1ccc(N2CCN(Cc3nc4c(c(=O)[nH]c(=O)n4C)n3Cc3ccc(Cl)cc3)CC2)cc1 | -0.2% | nt | nt | -0.2 | -1.9% | nt | -22
COc1cccc(OC)c1C(=O)NC(=O)Nc1c(C)cccc1C | 2.4% | 8% | 1 | -0.8 | -1.6% | -0.6 | -4
NC(=O)C1CCN(C(=O)c2ccc([N+](=O)[O-])cc2NC(=O)c2cccs2)CC1 | -2.6% | -2% | -14 | 0.6 | nt | -1.9 | -9
O=C(CN1C(=O)/C(=C/c2ccccc2F)SC1=S)NC1C=CS(=O)(=O)C1 (configuration not stated) | 0.5% | 22µM* | 7 | -0.4 | nt | -9.1 | 9
CCOC(=O)C1=C(N)Oc2c(oc(CO)cc2=O)C1c1ccc(F)cc1 (configuration not stated) | -1.3% | 12% | ? | 0.6 | 0.9% | -0.2 | 3
Cc1cccc(NC(=O)C2=C(O)c3ccccc3N(C)S2(=O)=O)c1 | 0.3% | 19% | -11 | 0.1 | 2.9% | 3.7 | -4
CCN1CCN(c2cc(C)nc(-c3ccccc3O)n2)CC1 | 1.0% | -3% | 24 | nt | 2.8% | -5.7 | nt
O=C1CC(c2cccs2)c2ccc3ccccc3c2N1 (configuration not stated) | 4.4% | -10% | -2 | 1.0 | -2.3% | -3.7 | -10
CN(CCN1CCOCC1)C(=O)c1cc(COc2ccc(F)c(F)c2)on1 | 0.3% | 2% | -6 | 1.2 | -1.5% | nt | 2
CCCNC(=O)COC(=O)c1cc(C)nc2ccccc12 | -1.8% | 13% | -12 | 0.2 | ? | 0.8 | 7
CC(CNS(=O)(=O)c1ccccc1)(c1ccccc1)N1CCCCC1 (configuration not stated) | -1.5% | 20% | -5 | 0.4 | -2.3% | 0.0 | 21
COc1ccc2ccccc2c1/C=N/NC(=O)c1nnn(-c2nonc2N)c1CN(C)C | -0.4% | -3% | -20 | 0.1 | 0.9% | -4.1 | 11
Cc1ccc([C@H]2C[C@H](n3cc(C4CC4)nn3)[C@@H](O)CN2C(=O)C2CCCCC2)cc1 | 1.9% | nt | nt | -0.5 | -0.4% | nt | 1
Cc1cc2c(cc3c(SCc4ccccc4Cl)nnc(C)n32)o1 | -1.6% | nt | nt | -0.1 | -8.3% | nt | 9
NC(=O)C1CCN(C2CC(=O)N(Cc3ccc(N4CCCC4=O)cc3)C2=O)CC1 (configuration not stated) | -0.8% | 1% | 2 | 1.3 | -1.2% | 0.5 | 3

Carrying on.
SMILES | PINK1 modulator | Sfp inh | TRPV1 PAM | TRPML1 agonist | ClpP mod | Menin MLL FP FL | TRPML1 inh
COC(=O)c1ccc(NC(=O)CSc2nc3ccccc3c(=O)[nH]2)cc1 | ? | -16% | 2 | 1.0 | -2.1% | -2.4 | -15
Cc1c(NC(=O)CN2C(=O)c3ccccc3S2(=O)=O)c(=O)n(-c2ccccc2)n1C | 3.7% | 17% | -10 | -0.3 | 0.9% | 2.7 | -3
Cn1c(N)c(C(=O)COC(=O)C23CC4CC(CC(C4)C2)C3)c(=O)n(C)c1=O | 1.4% | -8% | -18 | -0.4 | -2.1% | 6.5 | -6
Cc1ccc(NC(=O)C2CCN(S(=O)(=O)c3ccc4c(c3)NC(=O)CO4)CC2)cc1C | -1.8% | 13% | 5 | 0.9 | -0.4% | nt | 5
COc1ccc(COC[C@H](C)[C@H](O[Si](C)(C)C)[C@@H](C)[C@H]2OC(=O)[C@H]2C)cc1 | nt | -6% | nt | -0.2 | nt | -6.9 | -25
COc1ccc(NC(=O)C2CC(=O)N/C(=N/N=C/c3ccccc3)S2)cc1 (configuration not stated) | 2.4% | -11% | -9 | 0.8 | nt | 4.5 | -8
COc1ccc(S(=O)(=O)NCC2CCCO2)cc1NC(=O)c1ccc(Cl)cc1 (configuration not stated) | 0.7% | nt | -20 | -0.1 | -6.6% | nt | -10
O=C(CCCCl)NC(=S)Nc1ccc(CN2CCOCC2)cc1 | -1.6% | -7% | 3 | 2.4 | nt | 2.8 | -4
O=C(Nc1cccc(C(=O)O)c1)/C(=C\c1ccco1)NC(=O)c1ccccc1 | -1.6% | -16% | 1 | 1.0 | nt | 12 | 22
Cc1ccc(N(CC(=O)Nc2ccc(C)cn2)S(=O)(=O)c2c(C)nn(C)c2C)cc1 | 0.8%[38.3 µM] | 22% | -7 | -0.2 | 0.9% | -1.9 | -9
CCNC(=O)c1cc(S(=O)(=O)N2CCSCC2)ccc1OC | 0.6% | 4% | -16 | -0.2 | nt | -4.6 | 0
CCN1C(Nc2ccccc2)=NC[C@@H]1C | 0.4% | 11% | -5 | 0.5 | 0.7% | 2.6 | 8
CC(C)CCNc1ncnc2c1nnn2Cc1ccccc1 | 10% | 28% | -15 | -0.5 | nt | -0.3 | 9
COc1ccc2c(Sc3ccccc3)c(C(=O)NCc3ccc(OC(C)C)cc3)[nH]c2c1 | 3.3% | nt | nt | 0.1 | -4.5% | nt | -14
CN(C)c1ccc(CNC(=O)c2cc3cc(S(=O)(=O)N4CCCCC4)ccc3n2C)cc1 | 0.6% | nt | nt | 0.4 | -9.9% | nt | 28
CC(=O)N1CCN(CC(=O)Nc2cccc(S(=O)(=O)N3CCCCCC3)c2)CC1 | 1.9% | 18% | 2 | 0.5 | nt | -1.1 | 0
CCC(=O)c1ccc(OCC(=O)NCC2(N3CCCCC3)CCCCC2)cc1 | 0.1% | -1% | 10 | 1.6 | 1.7% | -5.0 | -8
CCOC(=O)c1c(NC(=S)NC(=O)c2ccco2)sc2c1CCCC2 | 7.5% | 0% | 3 | 0.2 | -0.8% | 3.6 | 17
C[C@H](C(=O)C=[N+]=[N-])N1C(=O)c2ccccc2C1=O | nt | 10% | -1 | nt | nt | 1.1 | nt
COC(=O)CN1C(=O)COc2ccc(S(=O)(=O)NCc3ccccc3)cc21 | 1.9% | 14% | 1 | -0.7 | 0.5% | -1.1 | 8
CCOc1ccccc1CNC(=O)CC(C)n1ccc(C)n1 (configuration not stated) | -1.9% | nt | nt | 0.0 | 0.0% | nt | -2
CCOC(=O)N1CCC(NC(=O)c2cc3c(=O)[nH]c4ccccc4c3n2C)CC1 | 13% | 15% | 0 | 0.3 | 4.0% | -0.9 | -1
O=C(O)CC1(c2ccc(F)cc2)C2CC3CC(C2)CC1C3 (configuration not stated) | -0.8% | 22% | 9 | -0.4 | -3.1% | 0.5 | 7

11 structures out of the list, ordered by SMILES length, rising.
SMILES | PINK1 modulator | Sfp inh | TRPV1 PAM | TRPML1 agonist | ClpP mod | Menin MLL FP FL | TRPML1 inh
CCN1C(Nc2ccccc2)=NC[C@@H]1C | 0.4% | 11% | -5 | 0.5 | 0.7% | 2.6 | 8
CC(C)CCNc1ncnc2c1nnn2Cc1ccccc1 | 10% | 28% | -15 | -0.5 | nt | -0.3 | 9
CCOc1ccccc1CNC(=O)CC(C)n1ccc(C)n1 (configuration not stated) | -1.9% | nt | nt | 0.0 | 0.0% | nt | -2
CCNC(=O)c1cc(S(=O)(=O)N2CCSCC2)ccc1OC | 0.6% | 4% | -16 | -0.2 | nt | -4.6 | 0
O=C(O)CC1(c2ccc(F)cc2)C2CC3CC(C2)CC1C3 (configuration not stated) | -0.8% | 22% | 9 | -0.4 | -3.1% | 0.5 | 7
CCC(=O)c1ccc(OCC(=O)NCC2(N3CCCCC3)CCCCC2)cc1 | 0.1% | -1% | 10 | 1.6 | 1.7% | -5.0 | -8
O=C(Nc1cccc(C(=O)O)c1)/C(=C\c1ccco1)NC(=O)c1ccccc1 | -1.6% | -16% | 1 | 1.0 | nt | 12 | 22
CCOC(=O)N1CCC(NC(=O)c2cc3c(=O)[nH]c4ccccc4c3n2C)CC1 | 13% | 15% | 0 | 0.3 | 4.0% | -0.9 | -1
Cn1c(N)c(C(=O)COC(=O)C23CC4CC(CC(C4)C2)C3)c(=O)n(C)c1=O | 1.4% | -8% | -18 | -0.4 | -2.1% | 6.5 | -6
Cc1ccc(NC(=O)C2CCN(S(=O)(=O)c3ccc4c(c3)NC(=O)CO4)CC2)cc1C | -1.8% | 13% | 5 | 0.9 | -0.4% | nt | 5
COc1ccc(COC[C@H](C)[C@H](O[Si](C)(C)C)[C@@H](C)[C@H]2OC(=O)[C@H]2C)cc1 | nt | -6% | nt | -0.2 | nt | -6.9 | -25

From PubChem

Not a hit list; 4.4% or so of the library scored in one or more.
